HCMV NEC inh = disrupts HCMV UL50-UL53 complex binding; HTRF UL50-UL53 interaction, normalized percent inhibition; inhibition, % (no concentration beside the values); 0.15% of 190,000 active;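 active = both replicates at 50% or more, plus weaker picks with an unusually low signal ratio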;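 note: stock transfer was 100 nL into about 20 µL; 0% = negative control wells and 100% = wells with untagged competitor protein; inactives centre near -12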
Sa growth inh = inhibitors of Staphylococcus aureus growth at 42 °C; S. aureus RN4220 growth, OD600, 20 h; stronger effect = lower value; relative growth, % (test concentration not listed); 0.53% of 170,000 active; AID 720641;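 active = growth at 42 °C up to 50% and 20 or more points under that at 30 °C, or under 10% at both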;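 note: 300 nL library stock went into each well; scaled to the means of positive and negative controls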
GIV Gai3 FP = inhibitors of GIV GBA-motif binding to rat Galpha-i3. Galpha-i3/FITC-GIV peptide fluorescence polarization, 90 min; stronger effect = lower value; scaled: aluminum fluoride 0%, vehicle 100%. percent of control (FP), % (test concentration not listed). 0.42% of 210,000 active. P08753;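 active = replicate mean at 85% of control or lower, very high polarization wells dropped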;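 note: wells of about 15 µL received 100 nL stock; the first replicate is given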
Target sequence (P08753 whole entry, looked up): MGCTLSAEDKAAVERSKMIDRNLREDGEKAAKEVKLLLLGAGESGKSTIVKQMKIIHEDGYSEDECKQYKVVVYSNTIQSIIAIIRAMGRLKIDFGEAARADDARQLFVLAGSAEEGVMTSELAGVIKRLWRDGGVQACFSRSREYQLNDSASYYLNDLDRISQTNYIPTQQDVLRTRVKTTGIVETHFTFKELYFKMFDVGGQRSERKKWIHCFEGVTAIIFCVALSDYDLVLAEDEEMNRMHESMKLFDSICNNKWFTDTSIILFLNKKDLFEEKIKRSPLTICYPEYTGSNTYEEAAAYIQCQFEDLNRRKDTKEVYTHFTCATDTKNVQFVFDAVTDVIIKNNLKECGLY
Sa growth inh second temp = also measured in Sa growth inh; calls as there; relative growth, %; measured here: growth at 30 °C;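 optical density after 20 h as mean of two plates; 100% = untreated growth and lower means inhibition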
* hit, by the source's call; . = no result given; & = joins results of further samples.

SMILES	HCMV NEC inh	Sa growth inh	Sa growth inh second temp	GIV Gai3 FP
CCSC(=C(C#N)C#N)c1cc2c([nH]1)CCCC2	-70	78	63	110
O=C(COC(=O)/C=C/c1cn(-c2ccccc2)nc1-c1ccccc1)NC1CC1	-24	130	84	.
Cc1ccc(Nc2nnc(C)c(=O)[nH]2)c(C)c1	8	.	.	102
Cc1cc2nc(Cc3ccc(Cl)cc3Cl)c(=O)[nH]c2cc1C	-18	.	.	98
O=C1NC(=S)N/C1=C\c1ccccc1	-29	97	98	.
Cc1scc(CN2CCN(c3ccc(F)cc3)CC2)c1C	.	86	101	109
Cn1c(SCC(=O)c2ccc(O)cc2O)nc2sccc2c1=O	-12	97	81	.
CCN(CC)CCn1c(C)c(C)c2c1ncn1nc(-c3ccc(C(C)(C)C)cc3)nc21	-13	.	.	102
CCn1nccc1C1CCCN1C(=O)Nc1ccccc1Br (stereo not drawn)	-25	.	.	99
NC(=O)CC(=O)c1ccc(F)cc1	-13	93	81	104
CCOc1ccc(C(=O)Nc2ccc3nc4c(c(Nc5ccccc5OC)c3c2)CCCC4)cc1	-27	104	85	101
N=C1/C(=C/c2ccco2)C(=O)N=C2SC=C(c3ccccc3)N12	-26	104	83	139

A draw from above in order of formula weight, rising.
SMILES	HCMV NEC inh	Sa growth inh	Sa growth inh second temp	GIV Gai3 FP
CCSC(=C(C#N)C#N)c1cc2c([nH]1)CCCC2	-70	78	63	110
CCn1nccc1C1CCCN1C(=O)Nc1ccccc1Br (stereo not drawn)	-25	.	.	99
CCOc1ccc(C(=O)Nc2ccc3nc4c(c(Nc5ccccc5OC)c3c2)CCCC4)cc1	-27	104	85	101

More structures.
SMILES	HCMV NEC inh	Sa growth inh	Sa growth inh second temp	GIV Gai3 FP
NC(=O)c1ccc(N2CCN(C(c3ccccc3)c3ccccc3)CC2)nc1	-12	113	121	.
O=C(CCc1nc(-c2cc3ccccc3[nH]c2=O)no1)Nc1ccccc1F	-33	.	.	103
COc1ccc(CCNC(=O)c2cnn(-c3ccc(C)c(C)c3)c2NC(=O)c2ccco2)cc1OC	1	107	113	102
CN1CCN(C(=O)Cn2ncc3c4ccccc4n(Cc4ccc(F)cc4)c3c2=O)CC1	3	103	97	107
COc1ccc(-n2c(C)c(C(C)=O)c3cc(OC(=O)COc4ccccc4)ccc32)cc1	-3	110	94	103
CCNC(=S)N1CCN(C)CC1	10	126	90	108
COc1ccc(N(CC(=O)Nc2cc(C)on2)S(=O)(=O)/C=C/c2ccccc2)cc1	-21	99	70	.
CCn1cc(C(=O)N2CCN(c3ccccc3)CC2)c(=O)c2cc(S(=O)(=O)N3CCC(C)CC3)ccc21	-35	102	90	103
CCCN(Cc1ccccc1)C(=O)c1ccc(N2C(=O)c3ccccc3C2=O)cc1	-8	95	90	107
Cc1ccc(-c2nc3ccc(Br)cn3c2Nc2ccc3c(c2)OCO3)o1	-22	86	91	101
CCCCNC(=O)c1ccccc1NC(=O)C1=C(C)OCCS1	-15	95	85	100
Cc1ccc(-n2ncc(C(=O)N3CCN(C4CCCCC4)CC3)c2C2CCN(C(=O)OC(C)(C)C)CC2)cc1C	.	90	89	108

Reprinted from the entries so far, 2 compounds:
SMILES	HCMV NEC inh	Sa growth inh	Sa growth inh second temp	GIV Gai3 FP
NC(=O)c1ccc(N2CCN(C(c3ccccc3)c3ccccc3)CC2)nc1	-12	113	121	.
O=C(CCc1nc(-c2cc3ccccc3[nH]c2=O)no1)Nc1ccccc1F	-33	.	.	103

Following part.
SMILES	HCMV NEC inh	Sa growth inh	Sa growth inh second temp	GIV Gai3 FP
Nn1c(SCC2CCCCO2)nnc1-c1ccncc1 (stereo not drawn)	-13	77	91	.
CC1CN(C(=O)c2ccccc2C(=O)Nc2ccc3nc(SCC(=O)NC4CCCCC4)sc3c2)CC(C)O1 (stereo not drawn)	-21	.	.	106
O=C(NCCC1=CCCCC1)c1ccc(Cn2c(=O)c(=O)[nH]c3cccnc32)cc1	-5	.	.	104
CCOC(=O)CCc1c(C)nc(SCC(=O)O)c(C#N)c1C	-12	74	84	100
O=C(CSc1nc2ncccc2n2cccc12)NCc1cccc(Cl)c1	-28	.	.	107
CCCNC(=O)NC1CC(C)(C)NC(C)(C)C1	-17	91	71	99
Cc1cc(NC(=O)CC(C)C)no1	-21	104	106	99
Cc1ccc(N(Cc2nc3nc(C)cc(=O)n3[nH]2)C(=O)CC(C)C)cc1	-33	.	.	106
CSc1ccc(C2Nc3ccc4ncccc4c3C3=C2C(=O)CCC3)cc1 (stereo not drawn)	-11	101	85	99
CCCNC(=O)c1ccc(C)c(NC(=O)C2=CSCCO2)c1	-34	98	90	102
O=C(NC1CCCc2ccccc21)c1cccnc1 (stereo not drawn)	-8	99	90	.
c1ccc(SCc2nc3ccccc3[nH]2)cc1	-3	.	.	108
O=C(Cn1cnc2ccccc2c1=O)c1cccs1	-37	107	95	102
O=C(Cn1c(=O)c2ccccc2n(CC(=O)Nc2ccc(F)cc2)c1=O)NCCc1ccccc1	-37	100	97	107
O=C1Nc2ccccc2/C1=C/c1ccc(Oc2ccccc2)nc1	-6	100	47	100
O=C(COc1cccc(-c2nc(-c3ccccc3)no2)c1)Nc1ccccn1	-25	.	.	108
CCOC(=O)c1cn[nH]c1S(=O)(=O)Nc1cc(C)cc(C)c1	-6	.	.	102
CSc1ccc(CCNC(=O)c2ccc(-n3c(C)cc4c3CCCC4)cc2)cc1	.	107	102	102
O=C(NCCN1CCNC1=O)Nc1cccc2ccccc12	2	102	100	108
COc1cc2c(cc1OC)CN(C1CCCCN(C(=O)c3ccc(F)cc3)C1=O)CC2 (stereo not drawn)	-17	99	85	.
O=C(O)c1nccnc1C(=O)N1CCN(C(c2ccccc2)c2ccccc2)CC1	-6	108	96	.
COc1ccc(CCC(=O)Nc2ccc3c(c2)CCCN3S(=O)(=O)c2ccccc2)cc1	10	.	.	96
O=C(c1ccco1)N1CCN(C(=S)Nc2ccc(S(=O)(=O)Nc3ncccn3)cc2)CC1	-7	98	91	104
COc1ccc(S(=O)(=O)C(C#N)c2nc3ccccc3nc2N2CCCC2)cc1 (stereo not drawn)	-3	64	19	124
O=C(NC1CCCC1)c1ccc2c(c1)OCO2	-16	91	104	104
O=C(/C=C/c1ccco1)OCCN1CCOCC1	-38	112	79	98
C=C1C(C(=O)Nc2ccc3c(c2)OCCO3)C1C(=O)Nc1ccc2c(c1)OCCO2 (stereo not drawn)	-3	92	69	.
Cc1cc(C)c2c(n1)SCC(=O)N2CC(=O)NC(C)C	-14	85	88	105
COc1ccc(CCNC(=O)c2ccc(N3CCCC3=O)cc2)cc1OC	-2	93	88	102
O=C(CCCN1C(=O)/C(=C\c2ccco2)SC1=S)N1CCCCC1	-90	85	70	109
CCn1ccc2cc(S(=O)(=O)N3CCC(C(=O)NCc4ccc(OC(C)C)cc4)CC3)ccc21	.	98	89	101
S=C1NCc2ccsc2S1	-242	113	21	49*
Clc1ccc2sc(Oc3cccc(N4CCOCC4)c3)nc2c1	.	109	105	103
CC(C)Oc1ccc(C(=O)N(Cc2ccc(N(C)C)cc2)C2CCS(=O)(=O)C2)cc1 (stereo not drawn)	-10	97	91	106
COc1cc2c(cc1OC)CN(Cc1ccc(C)o1)CC2	-5	123	83	.
CC(C)(C)OC(=O)N1CCC(c2c(C(=O)N3CCN(c4ncccn4)CC3)cnn2-c2ccc(F)cc2F)CC1	.	102	100	112
CC(NC(=O)CC1CCCCC1)c1ccccc1 (stereo not drawn)	-2	99	91	.
Nc1ccccc1C(=O)c1ccccc1C(=O)O	12	95	109	.
Cc1ccccc1C(=O)Nc1ccc2oc(-c3ccc(Cl)c(Cl)c3)nc2c1	-44	102	85	109
COC(=O)CSC(=S)N1CCC(C)CC1	4	107	95	.
COc1ccc(-c2csc3ncc(S(=O)(=O)c4ccc(F)c(Cl)c4)c(=O)n23)cc1OC	.	91	90	110
COc1ccc(OC)c(NC(=O)C2CCN(S(=O)(=O)c3ccc4c(c3)CC(C)N4C(C)=O)CC2)c1 (stereo not drawn)	.	113	91	98
C=CCN1C(=O)NC(=O)/C(=C/c2ccccc2OCc2ccc(Cl)cc2)C1=O	82*	.	.	117
COc1ccccc1CNC(=O)Cn1nc(C)c2nn(-c3ccc(Cl)cc3)c(C)c2c1=O	.	100	67	104
c1ccc(C2OCc3nonc3CO2)cc1	-18	93	90	.
COC(=O)c1ccc(CN2CCN(c3ccccc3)CC2)o1	2	104	92	.
COc1cccc(C2CC(=O)Nc3c2c(=O)[nH]c2nc4ccccc4n32)c1 (stereo not drawn)	24	102	105	109
O=C(Nc1ccc(N2CCCCC2)cc1)c1c(Cl)nc2sccn12	-27	102	99	.
Cc1cc(O)c(-c2ccn[nH]2)c(=O)o1	-3	102	85	103
COc1ccccc1NC(=O)c1c(C)oc2ncnc(N3CCCCC3)c12	-6	.	.	97
Cc1c(C)c(C)c(CN2CCSCC2)c(C)c1C	-20	87	84	98
O=C(COC(=O)c1cncc(Br)c1)NC1CC1	17	92	97	.
CCN1CCN(c2cc(C(=O)O)c3cc(NS(=O)(=O)c4ccc(CC(C)C)cc4)ccc3n2)CC1	-45	.	.	102
OCCSCc1cc(Cl)ccc1OC(F)F	-23	87	91	.
CCOC(=O)c1ccc2nc(NC(=O)COC(=O)c3ccnn3C)sc2c1	-10	103	77	.
Cc1ccc(-c2ccc3c(n2)sc2c(=O)[nH]cnc23)cc1C	-40	.	.	169
Cc1cccc(C)c1NC(=O)C1c2cccc[n+]2CC(=O)N1C (stereo not drawn)	.	105	95	104
Cc1ccc(Nc2nc(CSc3nnnn3-c3ccccc3)cc(=O)[nH]2)cc1	3	85	68	98
O=C(Nc1noc2ccccc12)c1cccc(F)c1	7&-1	101	68	110&98
COCCCn1c(=N)c(S(=O)(=O)c2ccccc2)cc2c(=O)n3cccc(C)c3nc21	-28	81	88	100

Entries of single compounds from above. Screens in order: HCMV NEC inh	Sa growth inh	Sa growth inh second temp	GIV Gai3 FP
Results for O=C(Nc1noc2ccccc12)c1cccc(F)c1 : 7&-1	101	68	110&98
Results for CCN1CCN(c2cc(C(=O)O)c3cc(NS(=O)(=O)c4ccc(CC(C)C)cc4)ccc3n2)CC1 : -45	.	.	102
Results for Cc1ccc(Nc2nc(CSc3nnnn3-c3ccccc3)cc(=O)[nH]2)cc1 : 3	85	68	98
Results for Cc1ccc(-c2ccc3c(n2)sc2c(=O)[nH]cnc23)cc1C : -40	.	.	169
Results for O=C(COC(=O)c1cncc(Br)c1)NC1CC1 : 17	92	97	.

Remaining list, next part:
SMILES	HCMV NEC inh	Sa growth inh	Sa growth inh second temp	GIV Gai3 FP
O=C(Cn1c(=O)c2cccn2c2ccc(F)cc21)N1CCN(c2ccccc2)CC1	-6	98	84	97
CCC1(C)NC(=O)N(NC(=O)CCc2c[nH]c3ccccc23)C1=O (stereo not drawn)	-13	98	89	.
CCN(CC)c1nc2ccccc2n2cnnc12	.	98	87	100
Brc1cccc(-c2nn3c(-c4ccccn4)nnc3s2)c1	-5	.	.	105
COc1ccc(S(=O)(=O)N2CCC(C(=O)Nc3cc(C(F)(F)F)ccc3Cl)CC2)cc1	-1	103	105	110
NCCC12CC3CC(C1)CC(C(=O)O)(C3)C2	.	96	90	102
COc1ccc(CN/C(C)=C/c2nsc(Nc3ccc(F)cc3)n2)cc1	.	133	72	104
Cc1cc(C)cc(OCc2ccc(C(=O)O)o2)c1	-8	112	99	103
N#Cc1c(-c2ccccc2)nc(SCC(=O)N2CCCc3ccccc32)[nH]c1=O	-4	112	111	.
Cc1nn(CC(=O)NCCc2ccccc2)c(=O)c2nn(-c3ccccc3)c(C)c12	.	122	87	110
COC(=O)C1=C(C)N(C(C)C)C(=O)/C1=C\c1ccc(C(=O)O)cc1	.	93	63	93
Cn1c(SCc2cc(=O)oc3cc(O)ccc23)nnc1C(F)(F)F	-29	106	87	107
FC(F)(F)c1cccc(-c2noc(-c3ccccn3)n2)c1	-29	106	98	101
COc1ccc(N(CN2C(=O)c3ccccc3C2=O)C(=O)C(C)C)cc1	-71	86	85	.
CCOC(=O)c1cn[nH]c1NC(=S)NCc1ccccc1	-4	105	90	109
COc1cc(Cl)c(C)cc1NC(=O)CSc1cc(-c2ccccc2)nc(C)n1	0	106	92	99
COc1cccc(NC(=O)N2CCN(Cc3nc(-c4ccccc4)oc3C)CC2)c1	3	.	.	104
Cc1ccc2oc(=O)c(S(=O)(=O)c3ccc(C(C)(C)C)cc3)cc2c1	-7	113	93	96
CN(C)c1nc(N)ncc1-c1ccccc1	-16	.	.	108
O=C(CCn1cnc2onc(-c3ccc(F)cc3)c2c1=O)Nc1ccc(F)c(Cl)c1	.	117	90	112
NC1=NC(c2cccc(Oc3ccccc3)c2)n2c(nc3ccccc32)N1 (stereo not drawn)	-41	94	43	.
COc1ccc(Br)cc1CNC(=O)C1CCN(C(=O)c2sccc2-n2cccc2)CC1	-14	94	85	95
Cc1ccnc(NC(=O)CN2C(=O)C(C)(C)c3ccccc32)c1	-11	.	.	100
O=C(NC1CCCC1)C1CCN(C(=O)c2ccc(-c3noc(C4CC4)n3)cc2)CC1	-2	.	.	103
CCOC(=O)c1ccc(NC(=O)CCC(C)C(=O)O)cc1 (stereo not drawn)	.	82	84	107
Cc1ccc(SCCC(=O)Nc2c(C)n(C)n(-c3ccccc3)c2=O)cc1	.	110	106	98
Cc1ccc2nc(/C(C#N)=C/c3cccc(Br)c3)[nH]c2c1	-1	118	90	111
Cc1nnc(N2C(=N)S/C(=C\c3ccccc3Cl)C2=O)s1	.	92	42	102

Screening results as filed in PubChem BioAssay.
